# Source: PubChem
# E coli growth – blocks Escherichia coli growth | OD600, 23 h; hits give low values | actives 0.21% (n = 330,000) | OD600 absorbance (no concentration beside the values);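 active means OD600 absorbance below the run mean of sample wells minus 3.6 SD, in any replicate, cut at about 0.56 in these data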;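 further: stock transfer was 300 nL into about 60 µL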
# Ecoli rRNA inh – selective bacterial rRNA inhibition in E. coli | E. coli WT GFP vs humanized-ribosome RFP mutants, fluorescence, 24 h; hits give low values; DMSO median 0, no signal -100 | AID 720706 | actives 1.6% (n = 350,000) | GFP signal change (wild-type ribosome), % (no concentration beside the values);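 active means significant combined selectivity score with lowered wild-type GFP, culture density cut under 30%, mutant RFP and density less affected; inactive means any of these conditions unmet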; further: one replicate is shown; some compounds called inactive have numbers as strong as hits
# FGF22 binding – shifts melting point of recombinant human FGF22; Q9HCT0; recombinant FGF22 thermal shift, SYPRO orange fluorescence; percent of sucrose octasulfate shift, DMSO zero; calls only at 9.99 µM; actives 1.5% (n = 340,000);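 active means melting point raised past a set limit in the mean and every replicate; three in four hits are not shown here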
# Target sequence (Q9HCT0 whole entry, looked up): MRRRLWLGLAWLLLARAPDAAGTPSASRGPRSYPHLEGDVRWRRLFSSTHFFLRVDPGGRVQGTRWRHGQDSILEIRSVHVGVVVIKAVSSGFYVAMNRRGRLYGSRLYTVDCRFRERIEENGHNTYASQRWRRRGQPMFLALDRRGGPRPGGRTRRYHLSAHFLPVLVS
# UCH37 DUB inh – human UCH37 deubiquitinating enzyme inhibition | inhibition, % (test concentration not listed) | actives 0.33% (n = 330,000) | purified proteasome/UCH37, Ub-AMC cleavage fluorescence | Q9Y5K5 | AID 588478;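 active means mean of two replicates above 20%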;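 further: 0% = compound-free wells with enzyme and 100% = wells lacking proteasome; stock transfer was 100 nL into about 20 µL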
# Target sequence (Q9Y5K5 whole entry, looked up): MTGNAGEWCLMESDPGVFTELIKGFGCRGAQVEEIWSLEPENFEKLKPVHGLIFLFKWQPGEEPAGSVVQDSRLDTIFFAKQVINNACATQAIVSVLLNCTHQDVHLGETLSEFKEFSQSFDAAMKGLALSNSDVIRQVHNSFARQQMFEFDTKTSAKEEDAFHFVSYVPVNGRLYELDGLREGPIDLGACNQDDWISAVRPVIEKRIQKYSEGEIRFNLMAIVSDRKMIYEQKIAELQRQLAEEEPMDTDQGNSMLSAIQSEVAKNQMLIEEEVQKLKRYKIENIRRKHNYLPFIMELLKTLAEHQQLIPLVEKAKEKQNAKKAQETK
#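 assay system = human UCH37 enzyme supplied as purified proteasome complex | amount = proteasome at 0.15 nM in the dispensed enzyme solution | schedule = 30 min compound-proteasome preincubation then 25 min substrate reaction, room temperature | measured by = fluorescence, ex 355 nm, em 460 nm | benchmarks = no-proteasome wells (full inhibition) and compound-free wells (no inhibition)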
# A1 inh – inhibitors of the anti-apoptotic protein A1, read as caspase activation. MEF A1-2A-BIM cells, Caspase-Glo 3/7 luminescence, 3 h; percent of clofoctol response, vehicle zero. caspase activation, % (test concentration not listed). actives 0.066% (n = 330,000);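 active means over half of replicate activation scores above 10%, or exactly half above 10 with the replicate mean above 10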;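 further: wells of about 30 µL received 50 nL stock; many hits fall short of the cut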
# Beta apoptosis – blocks beta cell apoptosis; INS-1E cytokine-induced death, ATP luminescence, 48 h; percent of positive-control rescue, neutral wells zero; protection from apoptosis, % (no concentration beside the values); actives 0.8% (n = 300,000);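 active means all replicates at 75% or more, or half of them and the mean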;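 further: 0% = cytokine-treated negative control wells and 100% = positive control rescue; higher means more ATP so stronger rescue from cytokine killing; wells of about 40 µL received 100 nL stock; the first replicate is given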
# T cruzi inh – blocks replication of Trypanosoma cruzi; inhibition, % (concentration not given with the values); actives 1.4% (n = 300,000); AID 1885; T. cruzi beta-gal in NIH3T3, luminescence, 90 h;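 active means mean inhibition across valid replicates above about 55%, limit read from the data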;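 further: signal also drops with host cell toxicity which is not excluded here; 0% = plate median of DMSO wells and 100% = zero luminescence signal; higher percent means less beta-gal luminescence so fewer parasites; stock transfer was 50 nL into about 50 µL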
# MLL AF4-AF9 inh – inhibitors of human MLL-AF4/AF9 interaction. actives 0.47% (n = 350,000). inhibition, % at 10 µM. AlphaScreen, biotin-AF4 peptide binding to FLAG-AF9. P42568. AID 651704;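 active means every replicate reaching a set inhibition limit, whatever the replicate mean, cut at about 25% in these data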;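 further: 0% = plate neutral control median and 100% = total signal loss; the record names both 10 and 1 µM as test concentration; the first replicate is given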
# Target sequence (P42568 whole entry, looked up): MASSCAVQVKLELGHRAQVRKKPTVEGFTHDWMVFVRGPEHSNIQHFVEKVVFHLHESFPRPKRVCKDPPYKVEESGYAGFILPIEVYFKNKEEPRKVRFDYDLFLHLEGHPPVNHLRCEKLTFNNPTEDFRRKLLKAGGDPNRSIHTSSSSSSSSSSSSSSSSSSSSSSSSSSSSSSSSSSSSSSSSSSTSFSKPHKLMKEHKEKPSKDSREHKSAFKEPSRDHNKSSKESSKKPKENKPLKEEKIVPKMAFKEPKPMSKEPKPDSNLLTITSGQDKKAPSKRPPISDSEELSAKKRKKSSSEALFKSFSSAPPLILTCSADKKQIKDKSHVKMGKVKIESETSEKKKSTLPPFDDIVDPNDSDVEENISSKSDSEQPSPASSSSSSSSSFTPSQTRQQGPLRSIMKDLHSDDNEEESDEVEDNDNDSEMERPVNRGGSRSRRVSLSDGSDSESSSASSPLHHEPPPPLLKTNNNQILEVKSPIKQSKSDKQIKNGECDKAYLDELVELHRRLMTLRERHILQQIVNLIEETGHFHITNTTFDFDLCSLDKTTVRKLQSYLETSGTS
# Ecoli rRNA inh OD600 – second read-out of Ecoli rRNA inh, no call of its own (marks repeat the call); OD600 change, %; measured here: OD600 growth;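 optical density of the mix in the first replicate; 0 = DMSO median and -100 = no signal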
# Ecoli rRNA inh RFP – second read-out of Ecoli rRNA inh, no call of its own (marks repeat the call); RFP signal change, %; measured here: RFP humanized mutant strains;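 first replicate; 0 = DMSO median and -100 = no signal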
# * marks the source's active call; other numbers are inactive results; i = inactive; x = not tested or not shown. A portion of the library; count on the stated rates, not on these rows.
SMILES,E coli growth,Ecoli rRNA inh,Ecoli rRNA inh OD600,Ecoli rRNA inh RFP,FGF22 binding,UCH37 DUB inh,A1 inh,Beta apoptosis,T cruzi inh,MLL AF4-AF9 inh
O=C(O)c1cc([N+](=O)[O-])ccc1NCc1cccnc1,0.61,7,5,0.5,i,12,0.0,-10,-2,-0.8
Cc1nn(CCC(=O)NNC(=S)Nc2cccc(Cl)c2)c(C)c1[N+](=O)[O-],0.73,x,x,x,x,-0.2,1.1,-2,-14,x
COc1ccc(-c2nn(-c3ccccc3)cc2/C=N/O)cc1OC,x,-33,-37,-9.0,i,x,0.2,-13,35,6.6
COc1cc(NC(=O)c2ccc(F)cc2)c(OC)cc1NC(=O)CN1CCOCC1,0.65,5,1,1.4,i,4.0,-1.0,-4,3,3.8
COC(=O)c1sccc1NC(=O)CN(C)NS(=O)(=O)c1ccc(F)cc1,0.67,x,x,x,x,0.1,0.0,x,2,x
CCCS(=O)(=O)N1CCN=C1SCc1cccnc1,0.72,3,12,0.5,i,1.5,-0.1,-3,-33,1.4
Cc1ccc(NC(=S)N2CCN(c3ccccn3)CC2)c(C)c1,0.65,3,5,-1.0,i,2.8,-0.7,-6,-18,-1.9
O=[N+]([O-])c1ccc(Sc2nccn2Cc2ccccc2)cc1,0.66,x,x,x,x,5.6,-0.2,1,2,x
O=C(O)c1ccc(Nc2nc3ccc(Cl)cc3[nH]2)cc1,0.66,-1,-10,0.9,x,1.7,-5.2,-4,-24,-2.0
Cc1cccc(NC(=O)N2CCCCCC2)c1,0.69,0,4,-2.8,i,4.3,0.4,-2,-5,-1.6
COc1ccc(OC)c(CC(NC(C)=O)C(=O)NC2CCN(S(=O)(=O)c3ccc(NC(C)=O)cc3)CC2)c1 (centres undefined),x,5,10,-1.1,i,x,-0.3,3,5,-0.4
CC1=NC2(CCCc3c2no[n+]3[O-])N(O)C1(C)C (centres undefined),0.66,x,x,x,x,0.8,-0.1,-3,-10,x
CCN(CC)S(=O)(=O)c1ccc2[nH]c(=O)cc(C(=O)Nc3ccccc3N3CCOCC3)c2c1,0.69,4,15,-1.1,i,3.0,1.7,-2,x,-1.4
CCCOC(=O)c1ccc(NC(=O)c2nc3nc(C)cc(C)n3n2)cc1,0.72,-23*,-5.7*,5.1*,i,-15,0.1,11,7,-2.0
Cc1ccc(NC(=O)COc2ccccc2[N+](=O)[O-])nc1,0.66,23,11,6.3,i,2.7,-9.1,-33,1,1.2
COc1ccccc1NC(=O)Cn1c(C)cc(=O)c2cccc(OC)c21,0.73,18,0,0.8,i,1.5,-0.6,29,-35,-1.1
COc1ccc(C2c3ccsc3CCN2C(=O)C(C)(C)C)cc1 (centres undefined),0.62,-47*,-16*,-6.5*,i,0.0,0.0,-11,5,1.4
CC(C)(C)C1CCC(=NNc2ncc(C(F)(F)F)cc2Cl)CC1 (centres undefined),0.77,x,x,x,x,2.9,-0.5,3,27,x
Cc1ccc(CN2CCN(/N=C/c3ccc(N(C)C)cc3)CC2)cc1,x,1,4,-2.4,i,x,-0.3,6,-12,5.4
O=C(COC(=O)/C=C/c1ccc(OC(F)F)cc1)NCCN1C(=O)CSC1=O,0.71,14,8,4.3,i,2.9,0.1,0,-7,-2.5
Cn1c(NC(=S)Nc2ccccc2)nc2ccccc21,0.74,x,x,x,x,3.4,0.6,48,45,x
Cc1nc2ccccc2n1C(C)c1ccccc1 (centres undefined),0.67,4,2,-0.2,i,2.6,0.6,-2,2,-4.3
COc1ccc(NC(=O)CSc2nnc(NC(=O)c3ccc(S(=O)(=O)N4CCOCC4)cc3)s2)cc1,0.71,x,x,x,x,-18,0.4,0,1,x
Cc1nnc(NC(=O)c2ccc3ccccc3c2)s1,0.67,7,9,-2.9,i,-6.1,-4.0,-6,-9,-1.7
Cc1nc(N2CCN(S(=O)(=O)c3ccccc3C#N)CC2)c2c(-c3cccs3)csc2n1,0.7,-5,-6,19,i,2.6,1.3,9,7,13
CC(=O)Nc1ccccc1-c1nc2ccc(C(=O)N3CCN(c4ccccc4)CC3)cc2[nH]c1=O,0.72,-3,-1,-0.8,i,9.0,-0.1,4,-7,-0.9
Cc1cc(C(=O)Cn2nc(C(=O)O)c3ccccc3c2=O)c(C)n1-c1ccc(OC(F)F)cc1,0.68,-14,-23,-2.7,x,2.3,-0.4,x,4,-2.3
O=C(COC(=O)c1ccc2c(c1)C(=O)N(Cc1ccncc1)C2=O)Nc1ccccc1[N+](=O)[O-],0.66,x,x,x,x,1.1,-0.7,-3,-16,x
CC(C)(C)NC(=O)C(c1ccncc1)N(C(=O)CNC(=O)c1ccco1)c1ccc2c(c1)OCO2 (centres undefined),0.69,x,x,x,x,4.6,-0.2,1,-15,x
O=C(Nc1cccc(C(=O)N2CCN(c3ccccc3)CC2)c1)c1ccco1,0.66,-11,-11,-1.5,i,0.0,0.5,0,10,2.2
CCCc1cc(=O)n2[nH]c(NCc3ccc(Cl)cc3Cl)nc2n1,0.7,x,x,x,x,2.9,-1.7,-5,-4,x
Cc1ccccc1OCC(=O)Nc1ccc(C(N)=O)cc1,0.72,x,x,x,x,-1.6,0.8,-6,-4,x
Cc1cc2nc3n(c2cc1C)CC1CC(C(=O)NCC2CC2)N(C)C31 (centres undefined),0.64,3,14,5.5,i,2.2,0.6,3,9,-11
CCCC1CCC(C(=O)Nn2cnc3ccccc3c2=O)CC1 (centres undefined),0.66,x,x,x,x,1.2,0.5,0,0,x
CC(=O)Nc1cc(-c2ccc(Cl)cc2)[nH]n1,0.64,1,13,-2.8,i,2.5,0.8,-2,-7,0.0
Clc1ccc(-c2csc(N3CCSCC3)n2)cc1,0.69,14,9,1.3,i,4.8,-0.8,-1,-17,-4.1
CCC1(c2ccccc2)NC(=O)N(CC(=O)Nc2ccccc2C(=O)N2CCCCC2)C1=O (centres undefined),0.7,7,0,2.1,x,5.1,-0.1,-1,-8,-1.8
O=S(=O)(NCCN1CCOCC1)c1cc(Cl)c(Cl)cc1Cl,0.65,-2,-15,3.1,i,1.3,0.5,x,5,1.7
COc1ccccc1-c1ccc(SCc2ccccc2)nn1,0.65,-33*,-26*,-4.0*,i,0.3,-0.8,7,17,-1.6
CC(NC(=O)C(=O)NCc1cccs1)c1ccccc1 (centres undefined),0.65,3,31,-2.6,i,5.0,0.3,-3,-10,-16
O=C(CSc1n[nH]c(=O)n1C1CC1)Nc1ccc(Cl)cc1Cl,0.68,-5,-11,-2.7,i,2.2,0.0,-4,x,0.4
CCC(C)NC(=O)COc1ccccc1[N+](=O)[O-] (centres undefined),0.68,x,x,x,x,0.1,1.4,7,2,x
Cc1c(NS(=O)(=O)c2ccccc2)c(=O)n(-c2ccccc2)n1C,0.71,x,x,x,x,5.6,0.0,4,1,x
CN(C)c1nc(N(C)C)n(Cc2c(Cl)cccc2Cl)n1,0.63,11,3,-1.5,x,1.1,-0.5,-7,-12,0.1
Cc1cccc2nc(=S)n(C(=O)c3ccco3)n12,0.66,x,x,x,x,0.8,0.5,12,11,x
COc1cccc(COC(=O)C2CCN(S(=O)(=O)c3ccc(F)cc3)CC2)c1OC,0.7,-11,-9,1.3,i,4.4,x,x,x,-0.1
COc1ccc(CC(=O)Nc2ccccc2NC(=O)c2ccco2)cc1OC,0.66,18,8,-4.5,i,0.7,-2.7,-4,8,0.9
O=C(CSc1cccc[n+]1[O-])NN(c1ccccc1)c1ccccc1,0.69,-3,3,-4.7,i,4.4,0.6,-2,-2,-8.2
CSc1ccc(NC(=O)CC(C)=O)cc1,0.68,x,x,x,x,3.0,1.1,4,-23,x
CCNCc1cc(OCC)c(OCC(=O)NCCc2ccccc2)cc1Cl,0.7,2,-2,-1.4,i,5.1,1.3,6,-4,-0.1
NC(=O)C1CCN(C(=O)CC2(CC(=O)O)CCCCC2)CC1,0.67,13,19,2.9,i,-1.9,-0.1,-7,-20,-1.8
Cc1ccccc1NC(=O)C1CC(=O)N(c2ccccc2F)C1 (centres undefined),0.7,x,x,x,x,0.9,0.0,-8,-6,x
Cc1ccc(C)c(CN2C(=O)C(C)Oc3ccc(C)cc32)c1 (centres undefined),0.71,x,x,x,x,5.8,0.1,1,21,x
COC(=O)C1CCN(C(=O)COc2ccc(Cl)cc2)CC1,0.67,x,x,x,x,2.9,0.0,4,-7,x
Cc1ccc(NC(=O)COC(=O)C2CCC2)cc1S(=O)(=O)N1CCCCC1,0.67,0,-3,-0.9,i,2.0,0.7,-2,0,0.0
COC(=O)[C@H](Cc1ccccc1)NC(=O)c1cc(COc2c(F)cccc2F)on1,0.68,-8,-11,2.1,i,6.7,-0.8,0,-5,-2.2
CC(=O)c1cc2ccc(O)cc2oc1=O,x,12,5,0.5,i,x,-3.4,-1,3,-38
C=CCN1C(=O)CSc2ccc(C(=O)NCc3ccc(F)cc3)cc21,0.67,6,9,2.8,i,1.8,1.2,0,5,-3.5
CCOC(=O)CC(NC(=O)Cn1nnc(-c2ccccc2F)n1)c1ccccc1Cl (centres undefined),0.71,3,5,6.0,i,1.7,0.2,0,6,-2.5
O=C(COC(=O)c1cc([N+](=O)[O-])ccc1N1CCOCC1)Nc1c(Cl)cccc1C(F)(F)F,0.72,-1,3,-0.5,i,-0.1,0.3,1,-2,-1.5

# A run of entries taken from the entries so far:
SMILES,E coli growth,Ecoli rRNA inh,Ecoli rRNA inh OD600,Ecoli rRNA inh RFP,FGF22 binding,UCH37 DUB inh,A1 inh,Beta apoptosis,T cruzi inh,MLL AF4-AF9 inh
CSc1ccc(NC(=O)CC(C)=O)cc1,0.68,x,x,x,x,3.0,1.1,4,-23,x
CCNCc1cc(OCC)c(OCC(=O)NCCc2ccccc2)cc1Cl,0.7,2,-2,-1.4,i,5.1,1.3,6,-4,-0.1
NC(=O)C1CCN(C(=O)CC2(CC(=O)O)CCCCC2)CC1,0.67,13,19,2.9,i,-1.9,-0.1,-7,-20,-1.8
Cc1ccccc1NC(=O)C1CC(=O)N(c2ccccc2F)C1 (centres undefined),0.7,x,x,x,x,0.9,0.0,-8,-6,x

# The listing continues:
SMILES,E coli growth,Ecoli rRNA inh,Ecoli rRNA inh OD600,Ecoli rRNA inh RFP,FGF22 binding,UCH37 DUB inh,A1 inh,Beta apoptosis,T cruzi inh,MLL AF4-AF9 inh
COc1ccc(C(=O)NCc2ccc(C(=O)O)o2)cc1,x,21,18,3.9,i,x,-1.0,-5,-4,-15
CCN1CCN(c2cc(C)c3cc(NC(=O)c4cnccn4)ccc3n2)CC1,0.73,-1,6,-3.9,i,11,1.2,x,42,5.3
Cc1ccc(-c2cn(CCN)c(-c3ccc(Cl)nc3)n2)cc1,0.72,8,21,12,i,-0.2,-1.4,-6,x,5.5
CC(=O)Nc1cccc(NC(C)=O)n1,0.65,x,x,x,x,0.5,0.6,-1,-6,x
Brc1ccc(CSc2ncnc3nc[nH]c23)cc1,0.68,-12,-22,-5.1,i,5.8,-0.5,3,-15,5.4
N#CC1=C(N)OC2=C(CCc3ccccc32)C1c1ccccc1 (centres undefined),0.69,x,x,x,x,-2.6,1.3,28,-11,x
CC(C)(C)c1ccc(C(=O)c2c[nH]c(C(=O)NCc3cccnc3)c2)cc1,0.7,x,x,x,x,2.3,-0.7,1,5,x
